Compound activity from PubChem.
VDR inhibitor: vitamin D3 receptor (human) inhibition; VDR-SRC2-3 peptide fluorescence polarization, 2 h; P11473; Potency, µM, for the others: max response, negative = inhibition, hits mostly inhibitors; 0.93% of 400,000 active; AID 504847; active = well fitted inhibition curve with a large enough effect; inconclusive = small, poorly fitted or top-dose-only effect, or another doubt; inactive = no such curve, though single readings can be large or run the other way; also: series mostly up to about 120 µM
Target sequence (P11473 whole entry, looked up): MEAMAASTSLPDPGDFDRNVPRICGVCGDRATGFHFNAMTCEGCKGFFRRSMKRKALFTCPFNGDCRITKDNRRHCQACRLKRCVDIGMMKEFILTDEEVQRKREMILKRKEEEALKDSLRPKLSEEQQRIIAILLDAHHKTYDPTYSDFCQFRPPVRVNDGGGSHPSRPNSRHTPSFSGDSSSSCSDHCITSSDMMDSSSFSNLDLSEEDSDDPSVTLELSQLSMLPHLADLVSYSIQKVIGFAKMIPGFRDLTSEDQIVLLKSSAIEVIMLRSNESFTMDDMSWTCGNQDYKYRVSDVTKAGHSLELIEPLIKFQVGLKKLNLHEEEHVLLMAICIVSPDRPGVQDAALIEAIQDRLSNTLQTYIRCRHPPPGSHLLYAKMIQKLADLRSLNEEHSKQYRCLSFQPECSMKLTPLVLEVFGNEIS
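Compounds are added to VDR with labelled SRC2-3 coactivator peptide and held 2 h at room temperature. Inhibition of the VDR–peptide interaction is then read as a change in fluorescence polarization.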
* = called active by the depositor; ? = inconclusive; & = joins results of further samples; [ ] = another dose, or the depositor's remark. % is scaled to controls: 0 for no effect and ±100 for the full control effect; potency is read from the fitted curve at half-maximal effect. The list is partial. The share of hits here may be higher or lower than overall.

SMILES	VDR inhibitor
O=C(CNC(=O)c1ccc(Cl)cc1)OCC(=O)c1ccc2c(c1)OCCO2	-1.1%
Cc1cc(C)cc(NC(=O)CC(C)n2nc(C)cc2C)c1 (centres undefined)	15.5%
CC1(C)Cc2c(sc3nc(N/N=C/c4ccccc4)[nH]c(=O)c23)CO1	-15.6%
COc1cc(CC(=O)OCC(=O)N2CC(C)CC(C)C2)cc(OC)c1OC (centres undefined)	-6.2%
Cc1ccc2c(c1)nnn2C1CCN(S(=O)(=O)c2ccc(C(=O)O)cc2)CC1	-7.1%
C=CCOC(=O)C1=C[C@H](c2ccc3c(c2)OCO3)C[C@H](OCCCCO)O1	-10.0%
Cc1ccc(S(=O)(=O)N2CCNC(=O)CC2)cc1	-5.2%
Cc1ccccc1NC(=O)C(C)OC(=O)C1CC(=O)N(Cc2ccco2)C1 (centres undefined)	0.9%
Cc1ccnc(NC(=O)CCC(=O)N(CC(=O)NCCc2ccccc2)c2ccccc2F)c1	9.1%
CCc1cccc(C)c1NC(=S)NCc1ccc2[nH]c(C)cc2c1	2.9%
Cc1ccc2c(c1)-c1nc(-c3ccc(Cl)cc3)cc(-c3coc4ccccc4c3=O)c1CO2	-2.6%
COc1ccc(C(=O)Oc2ccc3c(c2)OCO3)cc1OC	0.5%
CCCCN(C(=O)C(CCSC)N1C(=O)c2ccccc2C1=O)c1c(N)n(CCC)c(=O)[nH]c1=O (centres undefined)	78.0%[activator]
COc1cccc(N2CCN(C(=O)c3ccc(CS(=O)c4ccc(C)cc4)o3)CC2)c1 (centres undefined)	5.9%
Cc1csc(CNc2ncnc3ccc(-c4ccccc4Cl)cc23)c1	-22.4%
COC(=O)CSc1ccc(-c2nc3ccc(C)cc3[nH]2)cn1	-7.0%
Cc1cccc(-c2cc(=O)c3cc(Br)ccc3o2)c1	-3.9%
Cc1noc(C)c1NC(=O)N(C)C[C@H]1Oc2ccc(NC(=O)C3CCCCC3)cc2C(=O)N([C@H](C)CO)C[C@@H]1C	9.6%
CN(Cc1ccc(Cl)cc1)C(=O)c1ccccc1SCC(=O)N1CCCC1	0.0%
COc1cc(OC)cc(-c2cc(N3C(=O)Nc4ccccc4N3O)n[nH]2)c1	11.1%

4 of the entries above in order of their number in VDR inhibitor, high to low:
Structure | VDR inhibitor
CCc1cccc(C)c1NC(=S)NCc1ccc2[nH]c(C)cc2c1 | 2.9%
COc1ccc(C(=O)Oc2ccc3c(c2)OCO3)cc1OC | 0.5%
COc1cc(CC(=O)OCC(=O)N2CC(C)CC(C)C2)cc(OC)c1OC (centres undefined) | -6.2%
CC1(C)Cc2c(sc3nc(N/N=C/c4ccccc4)[nH]c(=O)c23)CO1 | -15.6%

(further entries)
SMILES	VDR inhibitor
CC1(c2ccc(OC(F)F)cc2)NC(=O)N(CC(=O)Nc2cccnc2Cl)C1=O (centres undefined)	3.2%
COc1cccc(-c2nn(-c3ccccc3)cc2C(=O)O)c1	5.5%
CCN(C#N)c1nc(NC(C)C)nc(NC(C)(C)C)n1	4.3%
Cc1ccc(C(=O)NC(=S)Nc2ccccc2N2CCOCC2)cc1C	5.8%
Cc1ccc(-c2onc(C)c2C)cc1S(=O)(=O)NCc1ccco1	3.5%
O=C(NN1C(=O)c2cc(Br)ccc2NC1c1ccccc1Cl)c1ccncc1 (centres undefined)	6.2%
CC(C)CN(C)C(=O)CC1C(=O)NCCN1C (centres undefined)	23.5%
CC1CN(C(=O)CCC(=O)N2CCOCC2)c2ccccc2O1 (centres undefined)	-4.0%
S=C(NCCN1CCOCC1)NC1CCCCC1	7.6%
OCc1ccccc1O	-0.2%
CN(C)S(=O)(=O)c1ccc(NC(=O)c2c(F)cccc2Cl)cc1	9.3%
Nc1nc2ccccc2n1/N=C/c1cccnc1	?
O=C(Nc1cc(F)ccc1F)c1ccc2c(c1)nnn2C1CCCC1	11.8%
CSCCC(NC(=O)COc1ccccc1)C(=O)N1CCCC(C)C1 (centres undefined)	-3.1%
CCCCCSc1ncccc1C(=O)O	-11.1%
CCc1ccc(C(=O)NNC(=O)C2CCN(c3ncnc4sc(C)c(C)c34)CC2)cc1	-2.9%
CC(C)N(C#N)c1nc(N2CCOCC2)nc(N2CCOCC2)n1	3.1%
COc1cccc(CNC(=O)CN2C(=O)CCn3nc(-c4cn(C)c5ccccc45)cc32)c1OC	17.3%
COc1cc(/C=N/NC(=O)c2ccncc2)ccc1OCCN1CCCCC1	-23.0%
Cc1cc(C)cc(OC(=O)CCN2C(=O)c3ccccc3C2=O)c1	7.8%

Given as comma-separated lines: part of the list above
molecule,VDR inhibitor
O=C(NN1C(=O)c2cc(Br)ccc2NC1c1ccccc1Cl)c1ccncc1 (centres undefined),6.2%
CC(C)CN(C)C(=O)CC1C(=O)NCCN1C (centres undefined),23.5%
CC1CN(C(=O)CCC(=O)N2CCOCC2)c2ccccc2O1 (centres undefined),-4.0%
S=C(NCCN1CCOCC1)NC1CCCCC1,7.6%
OCc1ccccc1O,-0.2%
CN(C)S(=O)(=O)c1ccc(NC(=O)c2c(F)cccc2Cl)cc1,9.3%

(next part)
SMILES	VDR inhibitor
COC(=O)c1c(C)[nH]c(C(=O)CSc2ncnc3sc(-c4ccccc4)cc23)c1C	-1.2%
O=C(c1ccc(Oc2ccc([N+](=O)[O-])cc2)cc1)N1CCCCCC1	10.5%
COc1cc(/C=N/NC(=O)c2cccnc2)ccc1OS(=O)(=O)c1ccc(C)cc1	1.1%
COc1ccccc1N1CCN(S(=O)(=O)CCNC(=O)C2CCCCC2)CC1	-10.0%
CC(CCC(C)OC(=O)c1ccccc1C(=O)O)OC(=O)c1ccccc1C(=O)O (centres undefined)	-6.7%
COCCN(C(=S)Nc1cc(C)cc(C)c1)C(C)c1ccco1 (centres undefined)	-27.8%
CC(=O)c1ccc(OCC(O)CN2CCN(S(=O)(=O)c3c(C)cc(C)cc3C)CC2)cc1 (centres undefined)	-14.3%
O=c1ccc2cc(S(=O)(=O)Nc3ccc(Br)cc3)ccc2o1	-6.1%
COc1cccc(OCc2cc(C(=O)NC(C)c3cnn(C)c3C)no2)c1 (centres undefined)	-7.5%
O=C(Nc1ccon1)c1ccc(OC2CCCC2)cc1	-9.7%
CC(C)(C)NC(=O)c1ccc2nsnc2c1	-6.7%
CCn1nc(C)c(CNC(=O)Nc2ccc3c(c2)OCO3)c1C	-11.6%
Cc1nc2ncnn2c(C)c1CCC(=O)NCc1ccc(Cl)cc1	-15.1%
Cc1ccc(CSc2nc3c(c(=O)[nH]2)CCC3)cc1	10.3%
Cc1cccc(NC(=O)C2CCCN2/C=C/C(=O)C(F)(F)F)c1C (centres undefined)	-8.0%
Cc1cc(C)n(CC(=O)c2ccc(Cl)cc2)n1	-0.8%
O=C(NCCCN1CCOCC1)c1ccc(CSCc2cccc(Cl)c2)o1	15.4%
O=C(CCCN1C(=O)c2ccccc2C1=O)N1CCN(c2ccccn2)CC1	-13.6%
O=C(CSc1nc2c(sc3ccccc32)c(=O)n1-c1ccccc1)NCc1ccco1	-5.6%
Fc1ccc(Nc2nc(-c3cccc(Cl)c3)c3c(n2)-c2ccccc2OC3)cc1	16.8%
COc1cccc(-c2sc3ccc(OC)cc3c2C#CC(C)(C)O)c1	-15.4%
OCCN1CCOCCOCCN(CCO)CCN(CCO)CC1	1.5%
O=C(CCC1CC(=O)Nc2ccccc21)NCc1cccnc1 (centres undefined)	1.6%
O=C1C=CN(Cc2ccccc2)C(c2ccccc2)C1 (centres undefined)	-9.5%
N#CCCn1c(=O)c(CCc2ccccc2)nc2cnc(Oc3cccc(Cl)c3)nc21	0.4%
CC(=O)N1CCc2cc(CNC(=O)Nc3ccc(Br)c(C)c3)ccc21	0.9%
O=C(O)CCCC(=O)N1CCN(C(c2ccccc2)c2ccccc2)CC1	-0.6%
C#CCCOC(=O)N1C2=NC(C(=O)OC)=C(C(=O)OC)[C@@H]3N(C)c4ccc(OC)cc4[C@]23C[C@H]1C(=O)OC	-14.3%
Cc1cc(C)c(NC(=O)CS(=O)CC(=O)Nc2cccnc2)c(C)c1 (centres undefined)	-2.2%
C/C(CC(=O)NC1CCCCC1)=N\NC(=O)Cc1ccc(-c2ccccc2)cc1	-2.8%
CC(=O)N1c2ccc(S(=O)(=O)N3CCCCC3)cc2CC1C(=O)NCc1ccccc1C (centres undefined)	15.4%
O=c1[nH]c(CN2CCCCC2)nc2ccccc12	-14.7%
COc1ccc(N2CCN(C(=O)COC(=O)c3ccco3)CC2)cc1	-14.2%
O=C(O)c1c2c(nc3ccccc13)/C(=C/c1ccccc1[N+](=O)[O-])CCC2	4.1%
Cc1ccc(-n2nnnc2CNC(=O)c2ccccc2)cc1C	12.7%
CC1CC(=O)NN=C1c1cccs1 (centres undefined)	1.8%
COc1ccc(S(=O)(=O)N2CCCC(C(=O)N3CCOCC3)C2)cc1C (centres undefined)	-4.3%
O=[N+]([O-])c1ccc(N2CCN(CCO)CC2)cc1NCc1ccco1	-7.4%
CCCN(C(=O)c1cn(C)c(=O)c2cc(OC)c(OC)cc12)c1ccc(CC)cc1	9.4%
COc1ccc(C(=O)C2CCN(C(=O)c3ccc(OC)cc3)CC2)cc1	-4.4%
O=C(O)CSc1nnc(C2CC2)n1-c1ccccc1	8.5%
COc1ccc(/C=N/NC2=NS(=O)(=O)c3ccccc32)cc1	5.1%
COc1ccc(C(=O)NCC(=O)OCC(=O)Nc2sccc2C#N)cc1OC	-16.5%
CCOC(=O)COc1ccc(/C=C(\C#N)c2nc3ccc(C)cc3[nH]2)cc1OC	-5.3%
Cc1ccccc1NC(=S)Nc1ccc2[nH]c(=O)[nH]c2c1	2.1%
CCCCN(CC)CCNC(=O)c1cc2c(=O)n(C)c3ccccc3c2n1C	-5.8%
O=C(Nc1cccc(-c2csc(Nc3ccccc3)n2)c1)c1ccccc1	0.3%
CCCOc1c(Br)cc(C(=O)NCC)cc1OC	10.7%
COc1ccc(CNC(=O)CN(CC2CCCO2)C(=O)CNS(=O)(=O)c2ccc(C)cc2)cc1 (centres undefined)	4.6%
CCCc1[nH]nc2c1C(c1ccc(O)cc1OCC)C(C#N)=C(N)O2 (centres undefined)	2.5%
CCCS(=O)(=O)N1CCN(Cc2ccccc2OCC)CC1	-4.9%
COCCNC(=S)NC1CC2CCCC(C1)N2Cc1ccco1 (centres undefined)	10.1%
O=C(CSc1nc2ccccc2c(=O)n1Cc1ccco1)N1CCCC1	7.2%
Cc1ccc(N2CCOCC2)c2c1C(=O)c1ccccc1C2=O	-2.8%
c1ccc2c(c1)nc(N1CCOCC1)c1nnnn12	-7.0%
CCCC1(CCC)NC(=O)N(CC(=O)Nc2ccccc2OC)C1=O	-2.1%
O=C(NC1CCCC1)c1cc2c(ccc3ccccc32)o1	-9.0%
Nc1ccc2nc[nH]c2c1	3.1%
COc1cc2cc(CN(Cc3cccnc3)C(=O)Nc3ccccc3)c(=O)[nH]c2cc1OC	?
Cc1cc(Nc2ccccc2Cl)n2nc(-c3ccco3)nc2n1	-0.8%
Next section.
SMILES	VDR inhibitor
O=C(NC1CCCCC1)C(c1ccncc1)N(C(=O)c1csnn1)c1ccccc1 (centres undefined)	-11.3%
C=CCO/N=C/C1C(=O)CC(C)(C)CC1=O	-8.9%
Cn1c(=O)cc(SCC(=O)N2CCOCC2)c2ccc(Cl)cc21	-3.3%
CCCCn1c(C(C)NC(=O)c2cccs2)nc2ccccc21 (centres undefined)	0.3%
CN(C)S(=O)(=O)Oc1ccc(C(=O)Nc2cccc(C(F)(F)F)c2)cc1	21.8%
COc1cc(F)cc(-c2ccc3c(c2)c(-c2cccs2)c(-c2cc(OC)cc(OC)c2)n3C)c1	5.9%
Cc1ccccc1CN1CCC(n2nccc2NC(=O)c2ccc3c(c2)OCO3)CC1	-1.2%
Cc1cc2c(cc1S(=O)(=O)CCC(=O)N1CC(C)CC(C)C1)OCC(=O)N2 (centres undefined)	2.4%
COc1ccc(NC(=O)COC(=O)C2C3CC4OC(=O)C2C4C3)cc1 (centres undefined)	3.2%
O=C(NCCc1ccc(Cl)cc1)c1ccc(S(=O)(=O)N2CCCC2)cc1	?
COc1cc(/C=C/C(=O)OCc2cn3cc(Cl)ccc3n2)ccc1O	-2.6%
O=C1N[C@H](Cc2c[nH]c3ccccc23)COC(=O)[C@H](Cc2ccc(F)cc2)C/C=C\C[C@H]1CC(=O)N(CCO)Cc1ccccc1	4.8%
COc1ccccc1CC(=O)c1ccc(OCc2ccccc2)cc1	-2.9%
CSCC[C@H](NC(=O)[C@H](CCCN=C(N)N)NC(=O)[C@@H]1CCCN1C(=O)[C@H](Cc1ccccc1)NC(=O)[C@H](C)NC(=O)[C@H](CC(C)C)NC(=O)[C@H](Cc1ccc(O)cc1)NC(=O)[C@H](CC(N)=O)NC(=O)[C@@H](N)CCSC)C(N)=O	0.7%
Clc1cccc(Nc2ncnc3c2cnn3-c2ccccc2)c1	-8.9%
O=C(Nc1cccc(C(F)(F)F)c1)c1cc2nc(-c3ccc4c(c3)OCO4)cc(C(F)(F)F)n2n1	-4.8%
COc1ccc(S(=O)(=O)NCC2CCCN(C(=O)c3occc3C)C2)cc1 (centres undefined)	14.3%
Cc1ccc(Br)cc1S(=O)(=O)Nc1cccnc1	7.6%
CN(C(=O)COC(=O)c1ccccc1Cc1ccccc1)c1c(N)n(Cc2ccccc2)c(=O)[nH]c1=O	9.4%
Nc1cccc(C(=O)OCC(=O)c2ccccc2)c1	3.8%
COc1ccc(-n2nnnc2/C=C\Nc2ccc(C)cc2)cc1	2.5%
CCOc1ccc(CNC(=O)c2sc3ncnc(N(C)C4CCCCC4)c3c2C)cc1	8.8%
COc1ccc(C(CC(=O)N2CCCC(C)C2)c2c(O)cc(OC)cc2OC)cc1 (centres undefined)	-1.8%&4.4%
CS(=O)(=O)N(CCc1ccccc1)CC(=O)N1CCCC1	-3.1%
